# Bioassay records: PubChem BioAssay, several laboratories
# RecA splice inh: blocks M. tuberculosis RecA intein splicing. cell-free RecA intein splicing, fluorescence. AID 2221. 290,000 tested, 0.75% active. P9WHJ3. inhibition, %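 (about 9 µM by stock and volumes)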; in the data active = inhibition above about 30%; inconclusive = no clear call, values can overlap the other calls;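 note: 0% = vehicle wells and 100% = reference inhibitor control wells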
# Target sequence (P9WHJ3 whole entry, looked up, canonical isoform): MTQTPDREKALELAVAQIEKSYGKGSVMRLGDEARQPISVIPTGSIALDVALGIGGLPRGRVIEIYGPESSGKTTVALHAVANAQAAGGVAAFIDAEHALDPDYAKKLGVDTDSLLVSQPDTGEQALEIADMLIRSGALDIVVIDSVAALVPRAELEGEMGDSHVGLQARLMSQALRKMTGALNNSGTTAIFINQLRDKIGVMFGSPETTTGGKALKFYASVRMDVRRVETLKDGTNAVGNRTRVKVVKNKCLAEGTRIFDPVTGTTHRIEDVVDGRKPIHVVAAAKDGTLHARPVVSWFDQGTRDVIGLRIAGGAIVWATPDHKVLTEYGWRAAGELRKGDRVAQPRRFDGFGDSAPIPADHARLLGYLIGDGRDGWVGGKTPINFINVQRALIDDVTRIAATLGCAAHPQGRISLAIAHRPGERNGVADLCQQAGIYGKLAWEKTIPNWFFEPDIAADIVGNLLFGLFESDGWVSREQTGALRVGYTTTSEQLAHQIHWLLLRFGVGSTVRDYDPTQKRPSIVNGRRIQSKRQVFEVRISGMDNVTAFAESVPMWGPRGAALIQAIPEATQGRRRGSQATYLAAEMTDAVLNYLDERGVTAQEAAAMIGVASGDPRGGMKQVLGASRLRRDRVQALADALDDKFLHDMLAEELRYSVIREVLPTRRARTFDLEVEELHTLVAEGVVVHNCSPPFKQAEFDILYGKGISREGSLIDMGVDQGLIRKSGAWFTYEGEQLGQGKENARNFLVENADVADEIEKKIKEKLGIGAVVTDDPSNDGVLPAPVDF
# Mtb bLac sens: beta-lactam sensitization of Mtb H37Rv | M. tuberculosis H37Rv growth with meropenem, percent inhibition; hits of this screen are not shown here | inhibition, % at 25 µM | 330,000 tested, 0.27% active | AID 434955;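 active = about 74% or more and at least 40 points above the plate without the antibiotic, then above 30% in a dose series; inconclusive = first-round hits that could not be retested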;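 note: growth measured after seven days incubation then overnight dye step; 0% = bacteria only wells and 100% = bacteria with antibiotic; twin plates without the antibiotic show which effects depend on it; some results filed as inactive read as strong as hits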
# Arbovirus inh: antivirals against arbovirus infection; arbovirus infection cell-based antiviral screen; inhibition, % at 10 µM; 200,000 tested, 0.37% active;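 active = inhibition from about 30%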;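 note: bluetongue infection of BSR cells; cell survival read as ATP light after 72 h; 0% = infected wells without compound and 100% = uninfected wells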
# Mtb H37Rv: M. tuberculosis H37Rv growth inhibitors, H37Rv strain (AID 1626) | 220,000 tested, 0.95% active | one-dose inhibition, % at 10 µM; IC50 in µM for titrated hits | M. tuberculosis H37Rv growth inhibition; higher % means a stronger effect;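 active = confirmed in a dose series; inconclusive = inhibition above 80% but not taken into the dose series; inactive = below 80% or under 30% at every dose of the series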;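 note: bacteria incubated seven days before Alamar blue readout; 0% = bacteria only wells and 100% = bacteria with antibiotic wells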
# YopH inh: YopH (Yersinia) phosphatase inhibition | fluorescence Ex485/Em525 | inhibition, %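 (about 10 µM by stock and volumes)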 | 140,000 tested, 0.16% active;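 active = inhibition of 50% or more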;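 note: controls were vehicle for no effect and minimum signal wells for full effect; inactives centre near -20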
# * = called active by the depositor; ? = inconclusive; / = no result given; & = joins results of further samples. Only part of the results is shown (hit frequency here may not be typical).
SMILES,RecA splice inh,Mtb bLac sens,Arbovirus inh,Mtb H37Rv,YopH inh
COc1cc2c(cc1OC)C(C)N(C(C)=O)CC2 (stereo unspecified),3.3,-2,-7,-6%,-16
CCOC(=O)CCNC(=O)N1CCCC(C(=O)c2cc(C)c(OC)c(C)c2)C1 (stereo unspecified),-0.5,0,/,/,/
CC(C)Nc1nc2n(c(=O)n1)CCN2C(C)C,0.6,-5,15,-13%,1
Cc1ccc(NC(=O)COc2coc(CN3CCc4ccccc4C3)cc2=O)cc1Cl,3.3,-1,/,/,/
CCC(=O)NCc1c(C)c(C)n(Cc2ccccc2)c1-n1cccc1,/,-2,1,-4%,/
CCOC(=O)N1CCN(C(=O)CN(c2cccc(C(F)(F)F)c2)S(=O)(=O)c2ccccc2)CC1,2.5,1,-8,-3%,-26
CC(C)Oc1ccc(OCCCN2CCCCCC2)cc1,-0.3,4,-17,8%,-15
O=C(C1CC1)N1CCN(C(c2ccccc2)c2ccccc2)CC1,2.9,10,1,-4%,-9
Cc1cc(C)cc(NC(=S)N2C3CCCC2CC(NC(=O)C2CC2)C3)c1 (stereo unspecified),0.8,-2,/,/,/
CCc1ccc(C(=O)COC(=O)CNC(=O)Cc2ccccc2)cc1,1.5,?,/,/,/
COc1cc2c(cc1C1NC(=S)NC(C)=C1C(N)=O)CCCC2 (stereo unspecified),/,-9,6,-4%,/
CCOC(=O)c1c(C)c(C(=O)NCc2ccco2)c(C)n1Cc1ccccc1,9.5,-4,8,9%,2
COc1ccc(C2CC(c3ccccc3)=NN2C(=O)COC(=O)C2CC2)cc1 (stereo unspecified),13,11,-2,8%,-23
CCC(C(=O)NCCc1c[nH]c2ccc(C)cc12)c1ccccc1 (stereo unspecified),0.8,-6,/,/,/
COc1cc(CN2CCCCCC2)cc(OC)c1OC,-0.3,-6,/,/,/
N#CC(C(=O)NC1CCCCC1)=C1CCCCC1,1.4,-4,-1,2%,-19
O=S(=O)(NCC(c1cccnc1)N1CCc2ccccc2C1)c1ccccc1 (stereo unspecified),-0.5,4,/,/,/
COC(=O)c1ccc(CSc2nnc3n(Cc4ccccc4OC)c(=O)c4ccccc4n23)o1,-3.3,20,6,-10%,/
O=C(O)CCCN=CC1=C(O)CNC1=O,-1.6,-5,0,-8%,/
Cc1ccc(COCCN2CCN(S(=O)(=O)c3ccccc3)CCC2=O)cc1,-0.1,-10,/,-13%,/
Cc1cccc(/C=N/NC(=O)Cc2cccs2)c1,1.1,-5,/,-6%,/
CCN1C(=O)[C@H]2[C@@H](c3ccc(Cl)cc3)N3C(=O)CN(CCOC)C(=O)[C@@]3(C)[C@H]2C1=O,-1.1,-3,/,/,/
Nc1nc(N)nc(-c2ccccc2O)n1,-0.8,-3,0,-11%,-32
O=C(NCc1ccccc1)C(c1ccncc1)N(C(=O)c1csnn1)c1cccc(F)c1 (stereo unspecified),0.6,-10,/,/,/
Cc1cccc(S(=O)(=O)Nc2nc3ccccc3nc2Nc2cccc(C(=O)O)c2)c1,2.0,-3,/,/,/

# Part of the list above in order of number of heavy atoms, highest first.
SMILES,RecA splice inh,Mtb bLac sens,Arbovirus inh,Mtb H37Rv,YopH inh
COC(=O)c1ccc(CSc2nnc3n(Cc4ccccc4OC)c(=O)c4ccccc4n23)o1,-3.3,20,6,-10%,/
Cc1ccc(COCCN2CCN(S(=O)(=O)c3ccccc3)CCC2=O)cc1,-0.1,-10,/,-13%,/
O=C(C1CC1)N1CCN(C(c2ccccc2)c2ccccc2)CC1,2.9,10,1,-4%,-9
CC(C)Nc1nc2n(c(=O)n1)CCN2C(C)C,0.6,-5,15,-13%,1
O=C(O)CCCN=CC1=C(O)CNC1=O,-1.6,-5,0,-8%,/

# An excerpt of these results, bar-delimited:
SMILES | RecA splice inh | Mtb bLac sens | Arbovirus inh | Mtb H37Rv | YopH inh
Cc1ccc(NC(=O)COc2coc(CN3CCc4ccccc4C3)cc2=O)cc1Cl | 3.3 | -1 | / | / | /
CCC(=O)NCc1c(C)c(C)n(Cc2ccccc2)c1-n1cccc1 | / | -2 | 1 | -4% | /
CCOC(=O)N1CCN(C(=O)CN(c2cccc(C(F)(F)F)c2)S(=O)(=O)c2ccccc2)CC1 | 2.5 | 1 | -8 | -3% | -26
CC(C)Oc1ccc(OCCCN2CCCCCC2)cc1 | -0.3 | 4 | -17 | 8% | -15
O=C(C1CC1)N1CCN(C(c2ccccc2)c2ccccc2)CC1 | 2.9 | 10 | 1 | -4% | -9
Cc1cc(C)cc(NC(=S)N2C3CCCC2CC(NC(=O)C2CC2)C3)c1 (stereo unspecified) | 0.8 | -2 | / | / | /
CCc1ccc(C(=O)COC(=O)CNC(=O)Cc2ccccc2)cc1 | 1.5 | ? | / | / | /

# Next part
SMILES,RecA splice inh,Mtb bLac sens,Arbovirus inh,Mtb H37Rv,YopH inh
O=C1CCc2ccc(OCCCCN3CCN(c4cccc(Cl)c4Cl)CC3)cc2N1,-2.5,68,0,?,/
COc1ccc(N(CC(=O)NN=C2CCN(C)CC2)S(=O)(=O)c2ccc(NC(C)=O)cc2)cc1,-0.7,-7,/,/,/
CC(C)OC(=O)CN1CCN(S(=O)(=O)c2cc(Cl)ccc2Cl)CC1,/,-7,5,-1%,-44
CCOC(=O)COc1ccc(Br)cc1C1NC(=O)NC(C)=C1C(=O)NCc1ccccc1 (stereo unspecified),3.5,-2,7,-3%,0
O=S(=O)(NCCc1ccc(Cl)cc1)c1cccc2cccnc12,5.3,10,/,/,/
Nc1ncnc(Oc2cccc3cccnc23)c1[N+](=O)[O-],-9.6,100,9,6.2µM*,/
C=CCN1c2ccccc2[C@]23C[C@@H](C(=O)OC)N(C(=O)c4ccc(Br)cc4)C2=NC(C(=O)OC)=C(C(=O)OC)[C@H]13,0.1,-2,/,-4%,/
CC(NC(=O)COC(=O)c1ccc(N(C)C)cc1)c1ccccc1 (stereo unspecified),0.3,-5,-6,8%,/
CCc1nnc(NC(=O)CSc2nnc3c4ccccc4n(C)c3n2)s1,1.5,7,3,-2%,-7
CCOC(=O)C(NC(=O)NC1CCCCC1)(c1ccccc1)C(F)(F)F (stereo unspecified),-1.4,-6,-12,-9%,-2
CC(c1cc2ccccc2s1)N(O)C(N)=O (stereo unspecified),-5.3,3,0,7%&-2%,/
Cc1cc(C)nc(NCc2ccc(Cl)cc2)n1,1.2,8,/,/,/
CCc1cc2c(=O)[nH]c(COC)nc2s1,0.3,-4,-1,-3%,-29
C=CCn1cc(-c2cccc(C(F)(F)F)c2)cc(C#N)c1=O,4.5,-2,-7,-5%,/
O=[N+]([O-])c1ccc(NC(=S)N2CCN(S(=O)(=O)c3ccccc3)CC2)cc1,1.7,-5,/,/,/
Cc1cnc(C(=O)N2CCCC(N3CCN(c4cccc(C(F)(F)F)c4)CC3)C2)cn1 (stereo unspecified),3.2,-8,/,/,/
Cc1nc(=O)c(-c2ccccc2)c(C)n1CCCCCC(=O)O,-6.7,4,1,2%,-21
CCC(=O)Nc1cccc2c1C(=O)N(C)C2=O,-1.3,-1,2,-9%,7
Cc1cccc(Nc2nc(NCc3ccco3)nc(N3CCOCC3)n2)c1,5.8,99,-10,-1%,-40
COc1ccc(Oc2coc3c(CN4CCOCC4)c(O)ccc3c2=O)cc1,-2.0,-4,2,-7%,9
COc1cc(S(=O)(=O)NC2CCCCC2C)ccc1F (stereo unspecified),-0.3,-15,/,/,/
Cc1ccccc1C(C(=O)NCc1ccco1)N(CC1CCCO1)C(=O)Cn1nnc2ccccc21 (stereo unspecified),-2.0,-4,8,1%,-13
Cc1ccc(-c2nc3cccnc3s2)cc1NS(=O)(=O)c1cccs1,1.7,-2,2,-1%,/
O=C(O)c1ccc(-c2ncc[nH]2)cc1,-3.2,-3,2,5%,/
Cc1ccc(S(=O)(=O)C(C)C(=O)c2ccc3c(c2)OCCO3)cc1 (stereo unspecified),-3.6,-6,3,2%,-19

# (listing goes on)
SMILES,RecA splice inh,Mtb bLac sens,Arbovirus inh,Mtb H37Rv,YopH inh
Cc1ccc2c(c1)N(CC(=O)N1CCC(C)CC1)C(=O)c1cccnc1O2,0.9,3,/,/,/
CCOC(=O)c1sc2ncnc(OC)c2c1C,-2.3,-2,2,-7%,-43
COc1ccccc1N1CCN(C(=O)c2cc(-c3cccc(Cl)c3)on2)CC1,0.9,9,6,2%,-43
COc1ccc(N(CC(=O)NCCSc2ccc(C)cc2)S(=O)(=O)c2ccccc2)c(OC)c1,1.8,-5,/,/,/
Cc1ccc(S(=O)(=O)CC(=O)N2CCN(c3ccc(F)cc3)CC2)cc1,-2.3,-19,/,/,/
CC(Oc1ccc(Cl)cc1Cl)c1ccnc2nc(N3CCOCC3)nn12 (stereo unspecified),5.9,2,5,8%,/
Cc1ccc(OCCNc2cc(N3CCN(CCO)CC3)ccc2[N+](=O)[O-])cc1C,-9.0,57,-29,19%,-29
CCOC(=O)C1=C(C)NC(C)=C(C(=O)OCC)C1C(=O)OCC(=O)NC(C)C,-4.4,-2,-5,-8%,-14
O=C(O)C[C@H]1c2ccc(C(F)(F)F)cc2S(=O)(=O)N1Cc1ccccc1,-2.7,-3,/,8%,/
Cc1nn(Cc2ccccc2Cl)c(C)c1C(=O)NC1=NCCS1,0.0,14,13,80%,-30
COc1ccccc1N(C)S(=O)(=O)c1ccc(Cl)c(C(=O)OCc2c(C)noc2C)c1,/,0,12,6%,/
Cn1ccnc1C(=O)C1CCCN(Cc2cn[nH]c2-c2ccc(-c3ccccc3)cc2)C1 (stereo unspecified),-5.4,-4,-7,10%,/
CC(=O)N1CCCc2cc(S(=O)(=O)N3CCN(C4CCCCC4)CC3)ccc21,-4.0,1,11,-2%,-39
CC1(C)CC(=O)C2=C(C1)OC(N)=C(C#N)C2c1cn(-c2ccccc2)nc1-c1ccc(F)cc1 (stereo unspecified),-1.1,6,8,-6%,-16
O=C(O)C(Cc1c[nH]c2ccccc12)N1C(=O)C2C3c4ccccc4C(c4ccccc43)C2C1=O (stereo unspecified),5.0,5,19,-7%,/
CC(C)(C(=O)O)n1cncn1,1.5,5,3,2%,/
COc1ccc(Br)c2c1C(=O)CC2,-1.5,-7,/,-5%,/
Cn1ccnc1Sc1ccc(/C=N/NC(=O)c2ccccc2[N+](=O)[O-])cc1[N+](=O)[O-],-3.9,3,1,-13%,18
Fc1ccc(-c2csc(/C=C/c3ccc4c(c3)OCO4)n2)cc1,-0.2,-3,-6,-3%,-31
COc1ccc2c(c1OC)C(=O)N(c1ccc(C)c(C)c1)C2=O,-8.7,-9,-13,-7%,-23
CN(Cc1cccs1)C(=O)/C=C/c1ccccc1[N+](=O)[O-],2.8,-1,1,5%,/
O=C(O)c1cc(-c2ccc3ccccc3n2)nc2ccccc12,0.3,0,/,/,/
CCOP(=O)(c1ccccc1)c1nc(-c2ccccc2Cl)oc1N1CCCCC1 (stereo unspecified),24,-6,-35,-3%,9
O=c1[nH]c(=S)n(-c2ccccc2F)c(O)c1C=NCc1ccco1,-3.2,-2,5,7%,-16
CCc1noc(C)c1C(=O)N1CCCC(C(=O)c2ccc(OC)c(F)c2)C1 (stereo unspecified),-0.8,-14,4,3%,/
CCn1c(SCc2ccc(Cl)cc2)nnc1-c1ccccc1,/,2,-3,7%,-26
Nc1c(C(=O)O)sc2nc3c(cc12)CCCC3,-0.4,-3,/,-5%,/
